# VACV Venus inh – inhibitors of vaccinia virus (Venus reporter). Vaccinia virus Venus reporter expression, fluorescence. Potency, µM (top dose mostly 36.5 µM), for the others: top-dose activity change, negative = inhibition, usual class: inhibitors. 330,000 tested, 0.46% active; active means well fitted inhibition curve with a large enough effect; inconclusive means small, poorly fitted or top-dose-only effect; inactive means no such curve, though single readings can be large or run the other way; tested in A549 cells; further: nearly all actives have a fitted effect of over 30% in size; inactives centre near -10
# VACV mCherry inh – vaccinia inhibition (mCherry reporter); Vaccinia virus mCherry reporter infection, fluorescence; about a quarter of the inactives have no number; Potency, µM (top dose mostly 36.5 µM), inactives show at the highest dose activity change, negative = inhibition, hits mostly inhibitors; 310,000 tested, 0.63% active; AID 720579; active = well fitted inhibition curve with a large enough effect; inconclusive = small, poorly fitted or top-dose-only effect; inactive = no such curve, though single readings can be large or run the other way; tested in A549 cells; further: nearly all actives have a fitted effect of over 35% in size; inactives centre near -10
# An asterisk follows results filed as active; i = inactive; ? = inconclusive; / = not tested or not shown; [ ] = another dose, or the depositor's remark. On the % scale 0 is the no-effect control and ±100 the full control effect; potency means the concentration at half of the fitted maximal effect. Rows were taken by chance; about 0.87% have a hit in one of these screens.
SMILES,VACV Venus inh,VACV mCherry inh
CCC(=O)N1CCc2cc(Br)cc(S(=O)(=O)NCc3ccc(Cl)cc3)c21,-3%,-13%
Cc1ccc(S(=O)(=O)N2CCN(Cc3nc4ccccc4[nH]3)CC2)cc1C,1%,-6%
CSc1sc(C)cc1C1C(C#N)=C(N)N(c2cccnc2)C2=C1C(=O)CCC2 (stereo not drawn),-7%,-20%
Cc1cc2occ(CC(=O)N(CCC(C)C)c3c(N)n(Cc4ccccc4)c(=O)[nH]c3=O)c2cc1C,-12%,-1%
COc1cccc(-c2nc3ccc([N+](=O)[O-])cc3o2)c1,-7%,i
O=c1[nH]c(C2CCN(S(=O)(=O)c3ccc(S(=O)(=O)NC4CC4)cc3)CC2)nc2c1nnn2Cc1ccc(F)cc1,2%,-16%
COc1ccc2c(c1)OC(O)(C(F)F)CC2=O (stereo not drawn),2%,-11%
COc1ccc(N2CC(C(=O)N(CC(C)C)c3c(N)n(Cc4ccccc4)c(=O)[nH]c3=O)CC2=O)c(OC)c1 (stereo not drawn),3%,-25%
Cc1ccc(-n2nnc3c(=O)n(CC(=O)NCc4ccco4)cnc32)cc1,-30%,-6%
C=CC(C)(C)c1[nH]cnc1/C=C1\NC(=O)C(C(C)C)NC1=O (stereo not drawn),-17%,3%
Cc1ccc(C2C3CN(C(C)C)CC=C3C(C#N)=C(N)C2(C#N)C#N)cc1 (stereo not drawn),11%,-13%
Cc1cccc(NC(=S)NN2CCOCC2)c1C,-5%,-11%
O=C(CC12CC3CC(C1)CC(CC(=O)NC1=NCCS1)(C3)C2)NC1=NCCS1,-11%,i
C/C(=C\c1ccco1)CN1CCN(Cc2ccc(C)o2)C(CCO)C1 (stereo not drawn),-15%,-18%
O=C(CCS(=O)(=O)Cc1ccccc1)Nc1ccc2c(c1)OCCO2,-6%,-9%
Brc1ccc(-c2nn3c(Cc4ccccc4)nnc3s2)o1,-18%,-16%
COc1ccc(OC)c(NC(=O)CCNC(=O)N2CC(=O)Nc3ccccc32)c1,-5%,-16%
Cc1ccc(N2C(=O)[C@@H]3CSC(c4ccc(C(F)(F)F)cc4)N3C2=O)cc1 (stereo partly drawn),-8%,-9%
CCOc1ccc(C2=Nc3ccc(Br)cc3C(c3ccc(N4CCOCC4)cc3)=NN2)cc1,-8%,i
CCCNC(=O)Cn1cnc2sc(C(=O)N3CCCC(C(=O)OCC)C3)c(C)c2c1=O (stereo not drawn),-15%,/
Cc1ccc(S(=O)(=O)NCC2COc3ccccc3O2)cc1 (stereo not drawn),-15%,i
COc1ccc(S(=O)(=O)c2c(O)cc(C)c(NS(=O)(=O)c3ccccc3)c2C)cc1,-11%,-9%
CN(C)c1ccc(C(CNC(=O)c2ccccc2C(F)(F)F)N2CCOCC2)cc1 (stereo not drawn),-4%,1%
Nc1nnc(SCC(=O)NCCOc2ccccc2)s1,-14%,/
COc1ccccc1OCCOc1ccc(/C=C2\C(=N)N3N=C(C)SC3=NC2=O)cc1,-6%,-11%
CN(CC1COCCO1)C(=O)c1cc(COc2c(F)cccc2F)on1 (stereo not drawn),-1%,-16%
Cc1c(C(=O)O)sc2nc3n(c(=O)c12)CCCCC3,2%,-1%
COc1ccc(C(=O)Nc2cccc(C(C)=O)c2)c(OC)c1OC,-10%,-10%
C[C@@H]1CN([C@@H](C)CO)C(=O)CCCn2nncc2CO[C@@H]1CN(C)S(=O)(=O)c1ccc(Oc2ccccc2)cc1,-29%,-5%
O=C(CNC(=O)c1cccs1)c1ccc(Br)cc1,0%,26%

# Random excerpt: two entries already listed
SMILES,VACV Venus inh,VACV mCherry inh
CN(CC1COCCO1)C(=O)c1cc(COc2c(F)cccc2F)on1 (stereo not drawn),-1%,-16%
CCCNC(=O)Cn1cnc2sc(C(=O)N3CCCC(C(=O)OCC)C3)c(C)c2c1=O (stereo not drawn),-15%,/

# Following part.
SMILES,VACV Venus inh,VACV mCherry inh
O=C(Nc1ccc(C(=O)OC[C@@H]2CCCN3CCCC[C@H]23)cc1)c1cccc(Br)c1,?,-1%
Cn1c(N)c(N2CCCCC2)c(=O)n(CC(=O)Nc2ccc(Cl)c(Cl)c2)c1=O,-27%,/
Cc1cc(-c2ccccc2)nc2cc(C(=O)N(Cc3ccccc3)Cc3ccccc3)nn12,?,/
NC(=O)C1CCN(C(=O)c2ccc(NS(=O)(=O)/C=C/c3ccccc3)cc2)CC1,-8%,?
O=C(CSc1nnc(NC(=O)c2cccc(Br)c2)s1)NCC1CCCO1 (stereo not drawn),-10%,i
COc1ccc(C(=O)Nc2ccc(NC(=O)c3cccs3)cn2)cc1,8%,-2%
CC1=C([N+](=O)[O-])C(c2ccccc2)C2=C(N1)c1ccccc1C2=O (stereo not drawn),?,13µM*
CC1(C(=O)NCc2ccccc2)CN(S(C)(=O)=O)CC(=O)N1CC(F)(F)F (stereo not drawn),-1%,-2%
CC(=O)C[C@H](O)CC(=O)[C@@H]1OC(=O)CCCCCCc2ccccc21,2%,-7%
N=C1C(c2nc3ccccc3s2)=C(O)CN1NC(=O)c1ccccc1[N+](=O)[O-],-12%,-4%
CC(=O)C1=C(c2ccc(Cl)c(Cl)c2)N(C(C)=O)n2c(nnc2-c2ccccc2)S1,-3%,-10%
Cc1cc(NC(=O)COC(=O)CCn2c(C)csc2=O)c([N+](=O)[O-])cc1C,-19%,-3%
ClCCN(CCCl)c1ccc(/C=C/c2ccnc3ccccc23)cc1,10%,8%
O=S(=O)(c1ccccc1)c1nc(-c2ccc(Cl)cc2Cl)oc1N1CCCCCC1,-12%,-10%
CCC(C(=O)OCC(=O)Nc1c(C)nn(-c2ccccc2)c1C)c1ccccc1 (stereo not drawn),-11%,-8%

# 14 neighbouring compounds from above, for reference:
SMILES,VACV Venus inh,VACV mCherry inh
C[C@@H]1CN([C@@H](C)CO)C(=O)CCCn2nncc2CO[C@@H]1CN(C)S(=O)(=O)c1ccc(Oc2ccccc2)cc1,-29%,-5%
O=C(CNC(=O)c1cccs1)c1ccc(Br)cc1,0%,26%
O=C(Nc1ccc(C(=O)OC[C@@H]2CCCN3CCCC[C@H]23)cc1)c1cccc(Br)c1,?,-1%
Cn1c(N)c(N2CCCCC2)c(=O)n(CC(=O)Nc2ccc(Cl)c(Cl)c2)c1=O,-27%,/
Cc1cc(-c2ccccc2)nc2cc(C(=O)N(Cc3ccccc3)Cc3ccccc3)nn12,?,/
NC(=O)C1CCN(C(=O)c2ccc(NS(=O)(=O)/C=C/c3ccccc3)cc2)CC1,-8%,?
O=C(CSc1nnc(NC(=O)c2cccc(Br)c2)s1)NCC1CCCO1 (stereo not drawn),-10%,i
COc1ccc(C(=O)Nc2ccc(NC(=O)c3cccs3)cn2)cc1,8%,-2%
CC1=C([N+](=O)[O-])C(c2ccccc2)C2=C(N1)c1ccccc1C2=O (stereo not drawn),?,13µM*
CC1(C(=O)NCc2ccccc2)CN(S(C)(=O)=O)CC(=O)N1CC(F)(F)F (stereo not drawn),-1%,-2%
CC(=O)C[C@H](O)CC(=O)[C@@H]1OC(=O)CCCCCCc2ccccc21,2%,-7%
N=C1C(c2nc3ccccc3s2)=C(O)CN1NC(=O)c1ccccc1[N+](=O)[O-],-12%,-4%
CC(=O)C1=C(c2ccc(Cl)c(Cl)c2)N(C(C)=O)n2c(nnc2-c2ccccc2)S1,-3%,-10%
Cc1cc(NC(=O)COC(=O)CCn2c(C)csc2=O)c([N+](=O)[O-])cc1C,-19%,-3%

# Remaining list, next part
SMILES,VACV Venus inh,VACV mCherry inh
CC(C)C(=O)NCC1(N(C)C)CCCCC1,-6%,-16%
Cc1ccccc1NC(=O)Cn1c(=O)n(CCc2ccccc2)c(=O)c2ccccc21,-7%,-13%
COCCNC(=O)C1(C)CCN(Cc2cccc(Oc3ccccc3)c2)C1 (stereo not drawn),-3%,i
CCOC(=O)[C@]12CCCC=C1N(CCC1=CCCCC1)C(=O)[C@H](CC(=O)N1CCN(C(=O)c3ccco3)CC1)C2,?,i
COC(=O)Nc1nc(C)c(C(=O)c2ccccc2)s1,?,/
Cc1cc(C(=O)NN=C2CCCCCCC2)c2ccccc2n1,?,-10%
COc1cc(NS(=O)(=O)c2cc(C(=O)NCCc3ccccn3)ccc2OC)cc(OC)c1,-10%,-10%
C1CCC(NC2=NCCO2)CC1,?,-29%
CC(C)c1nnc(NC(=O)CCC(=O)Nc2ccc(F)cc2)s1,-8%,-15%[1.46 µM]
COC(=O)c1ccc(COc2ccc3c(C)c(C)c(=O)oc3c2)o1,-13%,-18%
Cc1cc(OCC(=O)Nc2cc(-c3nc4ncccc4o3)ccc2C)ccc1Cl,-8%[7.34 µM],-22%[7.34 µM]
CCOc1ccc(NC(=O)CN(C)C(=O)/C=C/c2ccc(S(=O)(=O)N3CCCCCC3)cc2)cc1OCC,-5%,0%
Cc1ccc(OCCSC2=NN2c2cc(C)nc(N)n2)cc1,-8%,-13%
C=CC[C@@H](CC(=O)N[C@@H](CO)Cc1ccccc1)C(=O)N[C@H](COC(=O)[C@@H](CC=C)CC(=O)OC(C)(C)C)Cc1c[nH]c2ccccc12,11µM*,?
Cc1cccc(C(=O)NCCN2CCOCC2)c1[N+](=O)[O-],-13%,-13%
N#Cc1cccc(C(=O)C(=O)N2CCN(c3ccccc3)CC2)c1,-2%,i
Cc1ccc(C)c(Cn2c(=O)n(-c3ccc(Cl)cc3)c(=O)c3c4c(sc32)CCC4)c1,-2%,-9%
O=C(Nc1c2c(nn1-c1ccc(F)cc1)CS(=O)C2)c1ccc(S(=O)(=O)N2CCOCC2)cc1 (stereo not drawn),-14%,i
O=C(O)C1=C[C@H](c2ccc(Br)cc2)C[C@H](OCc2ccc(CO)cc2)O1,-19%,i
O=S(=O)(Nc1cccc(C(F)(F)F)c1)c1ccc(-c2cnc(C3CC3)o2)cc1,-19%,?
COc1ccc(NC(=O)Cn2c(=O)n(Cc3ccc(C(=O)NCc4ccccc4Cl)cc3)c(=O)c3ccccc32)cc1OC,-10%,-14%
CCOCCn1c(=O)c2c(nc3n2CCCN3CCc2ccccc2)n(C)c1=O,-1%[7.34 µM],i[7.34 µM]
N#CC1(NC(=O)CN2CCc3ccccc3C2)CCCC1,-4%,8%
COC(C[C@@H]1O[C@H]1[C@@H](O)COCc1ccccc1)OC,8%,i
COc1cc2cc(C(=O)Nc3ccccc3)c(N)nc2cc1OC,-14%,-3%
Cc1c(C(=O)Nc2cccnc2)oc2ccc(Br)cc12,?,?
Oc1ccccc1-c1nnc(SCCN2CCOCC2)n1Cc1ccccc1,?,?
O=C(/C=C/c1ccco1)NC(=S)Nc1nc(-c2ccc(Cl)cc2)cs1,-8%,i
C=CCNC(=O)CN1N=C(c2ccc(C)cc2)CCC1=O,0%,i
O=C(/C=C\c1cccs1)c1c(O)ccc2ccc(=O)oc12,-22%,-26%
O=C(CSc1nc(-c2cccs2)cc(C(F)(F)F)n1)Nc1cc(OCC(F)(F)C(F)F)cc([N+](=O)[O-])c1,-28%,-9%
CCOc1ccc(-n2c(SCC(=O)N3CCCCCC3)nc3c([nH]c4ccccc43)c2=O)cc1,-9%,-18%
COc1ccc2cc(C#N)c(N3CCN(C(=O)c4ccccc4C)CC3)nc2c1,-8%,i
O=C(Cc1ccccc1Cl)Nc1ccc(S(=O)(=O)Nc2nccs2)cc1,-11%,-1%
Cc1ccc(CC(=O)NC2CCN(C)CC2)cc1,-2%,i
CCOC(=O)C1CCCN(C(=O)COC(=O)c2cc(=O)c3ccccc3o2)C1 (stereo not drawn),-2%,i
CCOC(=O)c1[nH]cnc1C(=O)Nc1ccncc1,?,/
CCCC1(C)Nc2ccccc2-c2nc3ccccc3n21 (stereo not drawn),-11%,?
CC(C)NC(=O)CCn1ccc2cc(S(=O)(=O)N3CCCC3)ccc21,-13%,i
Cc1nc2scc(C)n2c(=O)c1S(=O)(=O)Nc1ccc(F)cc1,-2%,-13%
Cc1ccc(NC(=O)CN(C)CCOc2ccccc2)c([N+](=O)[O-])c1,-9%,-7%
CC(C)CC(C(=O)Nn1cnnc1)N1C(=O)c2ccccc2C1=O (stereo not drawn),-7%,i
CC(=O)c1ccc(NC(=O)CSc2ccc(-c3ccc4c(c3)OCO4)nn2)cc1,3%,1%
Cc1c([N+](=O)[O-])nnn1-c1cc(Cl)cc(Cl)c1,-18%,-16%
Oc1ccc(O)cc1,4%,-12%
CCCCCCCCNC(=O)C(CCC(=O)OCc1ccccc1)NC(C)=O (stereo not drawn),-9%,i
CC(C)=CC[N+]1(C)CCCCC1,-20%,i
CCc1nc2ccc(C(=O)NCc3ccc4c(c3)OCO4)cn2c1N(CC)Cc1cccc(Br)c1,-15%,-14%
Cc1cccc(C(=O)OC2CCOC2=O)c1C (stereo not drawn),-4%,-15%
O=C1Nc2ccc([N+](=O)[O-])cc2OC1CCN1CCN(Cc2ccccc2)CC1 (stereo not drawn),-19%,-15%
COc1ccc(CC(=O)Nc2nc3ccccc3[nH]2)cc1,-9%,4%
COc1ccc(NC(=O)/C=C/c2cc(OC)c(OC)c(OC)c2)cn1,-1%,i
Cc1ccsc1C(=O)C1CCCN(Cc2cccn2-c2ccccn2)C1 (stereo not drawn),-27%,-15%
O=C(NC1CC(=O)N(c2ccc(F)cc2)C1)C(c1ccccc1)c1ccccc1 (stereo not drawn),-3%,-11%
O=C(/C=C/c1cccc([N+](=O)[O-])c1)Nc1ccccc1N1CCOCC1,-16%,i
COCCN=c1scc(C)n1/N=C/C1CC2C=CC1C2 (stereo not drawn),-7%,-8%
O=C(NC1(C(F)(F)F)N=C(c2ccccc2)NC1=O)c1ccc(Cl)cc1Cl (stereo not drawn),-10%,-22%
O=C1CC(C(=O)Nc2ccc(Br)cc2)S/C(=N\N=C\c2ccco2)N1 (stereo not drawn),1%,-11%
